# Screening data (PubChem BioAssay)
# HIV Env fusion: blocks HIV Env-driven cell-cell fusion; HeLa-JRFL Env/CEM21 cell fusion, luciferase; inhibition, % at 12.3 µM; 1.1% of 360,000 active;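 active = mean replicate inhibition score of at least 50 and every replicate individually at or above 50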;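 note: 0% = plate neutral controls and 100% = maraviroc near 300 nM; one replicate is shown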
# UUG fidelity: modulators of start codon recognition fidelity in yeast; S. cerevisiae UUG-firefly luciferase reporter, luminescence/redox ratio; activity score, % at 18.7 µM; 0.13% of 350,000 active; AID 602363;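 active = replicate mean at a twofold rise or more, about +100% in these data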;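 note: firefly luciferase made from a UUG start codon reports start codon fidelity; reporter light over untreated wells divided by growth signal over untreated wells; some hits fall short of that in this replicate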
# Starred values were filed as active, the others as inactive; [ ] = dose if it differs, or a comment.
# Start of the data: the first 6 compounds, ahead of the listing:
SMILES,HIV Env fusion,UUG fidelity
C[C@H]1CCCCO[C@@H](CN(C)C(=O)Nc2ccc(F)cc2)[C@@H](C)CN([C@@H](C)CO)C(=O)c2cc(NC(=O)Nc3ccc(C(F)(F)F)cc3)ccc2O1,13[16.7 µM],-7
C[C@@H]1CN([C@@H](C)CO)S(=O)(=O)c2ccc(C#Cc3ccccc3)cc2O[C@H]1CN(C)S(=O)(=O)c1cn(C)cn1,22[16.7 µM],11
CCCC#Cc1cnc2c(c1)C(=O)N([C@H](C)CO)C[C@@H](C)[C@@H](CN(C)Cc1cccnc1)O2,-2[16.7 µM],-4
C[C@@H]1CN([C@H](C)CO)C(=O)c2cc(NC(=O)Nc3ccc4c(c3)OCO4)ccc2O[C@H]1CN(C)C(=O)Nc1ccc(F)cc1,-20[16.7 µM],-12
CC(C)NC(=O)N(C)C[C@@H]1Oc2cc(C#CC3CC3)ccc2S(=O)(=O)N([C@H](C)CO)C[C@H]1C,6[16.7 µM],14
CN1C(=O)c2cc(NC(=O)C3CC3)ccc2OC[C@H]2O[C@@H](CC(=O)NCc3cccc(F)c3)CC[C@H]21,-37[16.7 µM],11

# The listing, previewed entries included:
SMILES,HIV Env fusion,UUG fidelity
C[C@H]1CCCCO[C@@H](CN(C)C(=O)Nc2ccc(F)cc2)[C@@H](C)CN([C@@H](C)CO)C(=O)c2cc(NC(=O)Nc3ccc(C(F)(F)F)cc3)ccc2O1,13[16.7 µM],-7
C[C@@H]1CN([C@@H](C)CO)S(=O)(=O)c2ccc(C#Cc3ccccc3)cc2O[C@H]1CN(C)S(=O)(=O)c1cn(C)cn1,22[16.7 µM],11
CCCC#Cc1cnc2c(c1)C(=O)N([C@H](C)CO)C[C@@H](C)[C@@H](CN(C)Cc1cccnc1)O2,-2[16.7 µM],-4
C[C@@H]1CN([C@H](C)CO)C(=O)c2cc(NC(=O)Nc3ccc4c(c3)OCO4)ccc2O[C@H]1CN(C)C(=O)Nc1ccc(F)cc1,-20[16.7 µM],-12
CC(C)NC(=O)N(C)C[C@@H]1Oc2cc(C#CC3CC3)ccc2S(=O)(=O)N([C@H](C)CO)C[C@H]1C,6[16.7 µM],14
CN1C(=O)c2cc(NC(=O)C3CC3)ccc2OC[C@H]2O[C@@H](CC(=O)NCc3cccc(F)c3)CC[C@H]21,-37[16.7 µM],11
C[C@@H]1CN([C@@H](C)CO)C(=O)Cc2cc(N(C)C)ccc2O[C@@H]1CN(C)S(C)(=O)=O,-13[16.7 µM],-1
CO[C@H]1CN(C)C(=O)c2ccc(NS(C)(=O)=O)cc2OC[C@H](C)N(CC2CCOCC2)C[C@H]1C,9[16.7 µM],-2
C[C@@H]1CN([C@H](C)CO)C(=O)c2cc(NC(=O)CCC(F)(F)F)ccc2O[C@@H](C)CCCCO[C@H]1CN(C)C(=O)Cc1ccccc1,3[16.7 µM],13
CN1CCN(C(=O)C[C@@H]2CC[C@@H]3[C@H](COc4ccc(NC(=O)C5CC5)cc4C(=O)N3C)O2)CC1,-11[16.7 µM],-1
C[C@@H]1CN([C@@H](C)CO)C(=O)c2cccc(NS(C)(=O)=O)c2O[C@@H]1CN(C)Cc1ccc(C(=O)Nc2ccccc2N)cc1,-270[16.7 µM],-9
C[C@H]1CN([C@@H](C)CO)C(=O)c2cc(C#Cc3cccnc3)cnc2O[C@H]1CN(C)C(=O)CC1CC1,4[16.7 µM],-10
C[C@H](O)C#Cc1ccc2c(c1)O[C@@H](CN(C)C(=O)Nc1ccccc1)[C@H](C)CN([C@H](C)CO)S2(=O)=O,-43[16.7 µM],18
C[C@@H]1CN([C@@H](C)CO)C(=O)c2cc(-c3cccc(C(=O)N(C)C)c3)cnc2O[C@H]1CN(C)S(=O)(=O)c1ccccc1,-4[16.7 µM],16
C[C@@H]1CN([C@@H](C)CO)C(=O)Cc2cc(NS(=O)(=O)c3ccc(Cl)cc3)ccc2O[C@@H]1CN(C)Cc1ccc(Cl)c(Cl)c1,-5[16.7 µM],-12
C[C@@H]1CN([C@H](C)CO)C(=O)c2cccc(NS(=O)(=O)c3cccs3)c2O[C@H]1CN(C)C(=O)Nc1ccc(F)cc1,-17[16.7 µM],15
Cc1noc(C)c1NC(=O)N[C@@H]1CC[C@@H](CC(=O)N2CCCCC2)O[C@H]1CO,-1[16.7 µM],-6
COCC(=O)N(C)C[C@@H]1Oc2cc(-c3ccc(C#N)cc3)ccc2S(=O)(=O)N([C@@H](C)CO)C[C@@H]1C,-1[16.7 µM],4
COc1ccc(S(=O)(=O)N(C)C[C@@H]2Oc3ccc(NS(=O)(=O)c4cn(C)cn4)cc3CC(=O)N([C@@H](C)CO)C[C@@H]2C)cc1,-10[16.7 µM],-18
C[C@@H]1CN([C@H](C)CO)C(=O)c2cccc(NC(=O)Nc3ccccc3)c2O[C@@H]1CN(C)CC1CCCCC1,-19[16.7 µM],-9

# Given with values ahead of the structure: part of the list above
HIV Env fusion	UUG fidelity	compound
-37[16.7 µM]	11	CN1C(=O)c2cc(NC(=O)C3CC3)ccc2OC[C@H]2O[C@@H](CC(=O)NCc3cccc(F)c3)CC[C@H]21
4[16.7 µM]	-10	C[C@H]1CN([C@@H](C)CO)C(=O)c2cc(C#Cc3cccnc3)cnc2O[C@H]1CN(C)C(=O)CC1CC1
-4[16.7 µM]	16	C[C@@H]1CN([C@@H](C)CO)C(=O)c2cc(-c3cccc(C(=O)N(C)C)c3)cnc2O[C@H]1CN(C)S(=O)(=O)c1ccccc1

# (next part)
SMILES,HIV Env fusion,UUG fidelity
Cc1ccc(S(=O)(=O)Nc2cccc3c2O[C@H](CN(C)C(=O)Nc2c(C)noc2C)[C@H](C)CN([C@H](C)CO)C3=O)cc1,4[16.7 µM],-2
CC(C)NC(=O)N[C@H]1CC[C@@H](CCNC(=O)C2CC2)O[C@@H]1CO,-20[16.7 µM],10
C[C@@H]1CN([C@H](C)CO)C(=O)Cc2cc(NC(=O)C3CC3)ccc2O[C@@H]1CN(C)S(=O)(=O)c1cccs1,-17[16.7 µM],-20
CCCC#Cc1cnc2c(c1)C(=O)N([C@H](C)CO)C[C@H](C)[C@@H](CN(C)C(=O)c1ccc(F)cc1)O2,-7[16.7 µM],29
CCNC(=O)Nc1ccc2c(c1)C(=O)N(C)[C@@H]1CC[C@@H](CC(=O)NCc3cccc(F)c3)O[C@H]1CO2,4[16.7 µM],-4
C[C@H]1CCCCO[C@H](CN(C)S(=O)(=O)c2cccs2)[C@@H](C)CN([C@@H](C)CO)C(=O)c2cc(NC(=O)Nc3cccc4ccccc34)ccc2O1,2[16.7 µM],-13
CC(=O)N[C@H]1CC[C@@H](CC(=O)NCC2CCCCC2)O[C@H]1CO,-15[16.7 µM],-7
C[C@H]1CN([C@@H](C)CO)S(=O)(=O)c2ccc(C#CCN(C)C)cc2O[C@H]1CN(C)Cc1ccc2c(c1)OCO2,3[16.7 µM],32
C[C@H]1CN([C@@H](C)CO)C(=O)Cc2cc(NC(=O)NC3CCCCC3)ccc2O[C@@H]1CN(C)Cc1ccccc1,3[16.7 µM],5
C[C@H]1CN([C@@H](C)CO)C(=O)c2cc(C#CCN(C)C)cnc2O[C@@H]1CN(C)C(=O)Cc1ccccc1,3[16.7 µM],1
O=C(C[C@@H]1C=C[C@H](NC(=O)c2ccncc2)[C@@H](CO)O1)NCCc1ccncc1,5[16.7 µM],8
CN1CCN(C(=O)C[C@H]2CC[C@H](NC(=O)Nc3ccccc3F)[C@@H](CO)O2)CC1,7[16.7 µM],2
C[C@@H]1CCCCO[C@@H](CN(C)S(C)(=O)=O)[C@H](C)CN([C@H](C)CO)C(=O)c2cc(NS(=O)(=O)c3cn(C)cn3)ccc2O1,9[16.7 µM],-21
Cc1ccc(S(=O)(=O)Nc2ccc3c(c2)C(=O)N(C)[C@H]2CC[C@@H](CC(=O)O)O[C@H]2CO3)cc1,-17[16.7 µM],-4
O=C(Nc1ccccc1)N[C@H]1CC[C@H](CCNS(=O)(=O)c2ccccc2F)O[C@H]1CO,-6[16.7 µM],3
COc1ccc(NC(=O)N(C)C[C@H]2Oc3ccc(NC(=O)Nc4ccc(C(F)(F)F)cc4)cc3C(=O)N([C@H](C)CO)C[C@H]2C)cc1,-13[16.7 µM],-17
C[C@H](CO)N1C[C@H](C)[C@@H](CN(C)S(=O)(=O)c2ccccc2F)Oc2ncc(Br)cc2C1=O,-37,3
CCC(=O)Nc1ccc2c(c1)C(=O)N(C)[C@@H]1CC[C@@H](CC(=O)NCc3ccccc3)O[C@H]1CO2,2[16.7 µM],-16
CN(C)CC(=O)Nc1ccc2c(c1)[C@H]1C[C@@H](CC(=O)NCc3ccccc3F)O[C@H](CO)[C@H]1O2,6[16.7 µM],-11
Cc1noc(C)c1NC(=O)N[C@H]1C=C[C@@H](CC(=O)N2CCN(C)CC2)O[C@H]1CO,-3[16.7 µM],-5
COCC#Cc1cnc2c(c1)C(=O)N([C@H](C)CO)C[C@H](C)[C@H](CN(C)C(=O)Cc1ccccc1)O2,7[16.7 µM],-6
NCC[C@@H]1CC[C@@H](NC(=O)Cc2ccncc2)[C@H](CO)O1,-2[16.7 µM],1
CC(C)NC(=O)N(C)C[C@H]1Oc2c(NC(=O)Nc3ccc4c(c3)OCO4)cccc2C(=O)N([C@@H](C)CO)C[C@H]1C,-6[16.7 µM],12
C[C@H](CO)N1C[C@H](C)[C@H](CN(C)S(=O)(=O)c2ccccc2)Oc2cc(-c3cccc(F)c3)ccc2S1(=O)=O,83*[16.7 µM],-13
CC(C)NC(=O)N(C)C[C@@H]1Oc2ncc(C#CC3(O)CCCC3)cc2C(=O)N([C@H](C)CO)C[C@@H]1C,1[16.7 µM],20
CN1C(=O)c2cc(NC(=O)C3CCCCC3)ccc2OC[C@H]2O[C@H](CC(=O)NC3CCCC3)CC[C@H]21,-7[16.7 µM],7
O=C(NCC[C@@H]1CC[C@H](NS(=O)(=O)c2ccc(F)cc2)[C@H](CO)O1)Nc1ccc(Cl)cc1,5[16.7 µM],22
C[C@@H]1CN([C@H](C)CO)C(=O)c2cc(NS(C)(=O)=O)ccc2O[C@@H](C)CCCCO[C@@H]1CN(C)Cc1ccncc1,7[16.7 µM],5
C[C@@H]1CN([C@H](C)CO)C(=O)c2cc(/C=C/c3ccccc3)cnc2O[C@@H]1CN(C)C(=O)CN1CCOCC1,-9[16.7 µM],22
COc1ccc(NC(=O)N[C@@H]2C=C[C@@H](CC(=O)NCc3ccccn3)O[C@H]2CO)cc1,-6[16.7 µM],-13
Cc1noc(C)c1NC(=O)Nc1ccc2c(c1)C(=O)N([C@@H](C)CO)C[C@@H](C)[C@@H](CN(C)C(=O)C1CCCCC1)OCCCC[C@@H](C)O2,-177[16.7 µM],13
COc1ccc(S(=O)(=O)Nc2ccc3c(c2)CC(=O)N([C@@H](C)CO)C[C@H](C)[C@H](CN(C)S(=O)(=O)c2cn(C)cn2)O3)cc1,16[16.7 µM],16
C[C@H]1CCCCO[C@@H](CN(C)Cc2ccccc2)[C@@H](C)CN([C@@H](C)CO)C(=O)c2cc(NS(=O)(=O)c3ccc(Cl)cc3)ccc2O1,20[16.7 µM],35
CCC(=O)N1C[C@@H](C)[C@@H](OC)CN(C)C(=O)c2ccc(NC(=O)NC(C)C)cc2OC[C@@H]1C,-10[16.7 µM],20
COc1ccc(S(=O)(=O)Nc2ccc3c(c2)C(=O)N([C@H](C)CO)C[C@H](C)[C@H](CN(C)S(=O)(=O)c2cn(C)cn2)OCCCC[C@@H](C)O3)cc1,-15[16.7 µM],-2
C[C@H](CO)N1C[C@H](C)[C@H](CN(C)Cc2ccccc2)Oc2ccc(NC(=O)Nc3cccc4ccccc34)cc2CC1=O,60*[16.7 µM],-1
Cc1ccc(S(=O)(=O)Nc2ccc3c(c2)C(=O)N([C@@H](C)CO)C[C@H](C)[C@H](CN(C)S(=O)(=O)c2cccs2)OCCCC[C@H](C)O3)cc1,27[16.7 µM],-4
C[C@H]1CN([C@@H](C)CO)C(=O)Cc2cc(NS(=O)(=O)c3cn(C)cn3)ccc2O[C@H]1CN(C)S(C)(=O)=O,-6[16.7 µM],-13
COc1ccc(S(=O)(=O)N(C)C[C@@H]2OCCCC[C@H](C)Oc3ccc(NC(=O)Nc4ccccc4)cc3C(=O)N([C@@H](C)CO)C[C@@H]2C)cc1,-1[16.7 µM],-15
O=C(C[C@@H]1C[C@@H]2c3cc(NS(=O)(=O)c4ccc(F)cc4)ccc3O[C@@H]2[C@H](CO)O1)N1CCCCC1,3[16.7 µM],5
C[C@H]1CN([C@@H](C)CO)C(=O)c2cc(NS(=O)(=O)c3ccc(Cl)cc3)ccc2O[C@H]1CN(C)S(=O)(=O)c1ccc(F)cc1,-2[16.7 µM],1
C[C@@H]1CN([C@H](C)CO)C(=O)c2cc(NS(=O)(=O)c3cccs3)ccc2O[C@H]1CN(C)Cc1ccc(Cl)c(Cl)c1,4[16.7 µM],-3
COc1ccc(S(=O)(=O)N(C)C[C@@H]2OCCCC[C@H](C)Oc3ccc(NS(=O)(=O)c4cccs4)cc3C(=O)N([C@H](C)CO)C[C@H]2C)cc1,-14[16.7 µM],-16
COCCNC(=O)C[C@H]1C[C@H]2c3cc(NC(=O)NC4CCCCC4)ccc3O[C@H]2[C@@H](CO)O1,22[16.7 µM],2
COC(=O)C(CC#Cc1ccc2c(c1)[C@]1(C(=O)N2)[C@H](C(=O)N2CCc3cc(OC)c(OC)cc3C2)[C@H]2C(=O)O[C@H](c3ccccc3)[C@H](c3ccccc3)N2[C@@H]1c1ccc(OCCO)cc1)C(=O)OC,9[16.7 µM],-17
O=C(Nc1ccc(Cl)c(Cl)c1)N[C@H]1CC[C@@H](CCn2cc(C3CC3)nn2)O[C@@H]1CO,14[16.7 µM],22
Cc1ccc(S(=O)(=O)N[C@H]2CC[C@H](CCn3cc(C4(O)CCCC4)nn3)O[C@@H]2CO)cc1,-124[16.7 µM],10

# A portion of the library. The share of hits here may be higher or lower than overall.
